AID504770 – growth inhibitors of E. coli YBA685 in a screen for V. cholerae RctB (chromosome II replication) inhibitors; E. coli YBA685 rctB-dependent plasmid, OD600 growth, 3 h; active compounds read low; z-score (no concentration beside the values); 0.27% of 130,000 active; AID 504770;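 active = z-score under -2 on both plates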;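 note: wells of about 30 µL received 100 nL stock; score is relative to mean and SD of the test wells; the first replicate is given; strong numbers were not always called active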
Ba CapD inh – CapD enzyme inhibition | purified CapD enzyme, fluorescence intensity read-out; active compounds read low; some hits fall short of the stated cut | z-score (no concentration beside the values) | 0.23% of 140,000 active;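 active = z-score under -4 in either of two replicates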;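 note: stock transfer was 100 nL into about 40 µL; score is relative to mean and spread of the plate; one replicate is shown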
The depositor's hits bear a star; x = not tested or not shown; & = joins results of further samples.

Preview, three compounds:
SMILES	AID504770	Ba CapD inh
C/C(Cc1ccccc1)=N\NC(=O)c1cc(C(C)(C)C)[nH]n1	0.7	x
Cc1cc(N2C(=O)CSC2c2ccc3c(c2)OCO3)ccc1Br (stereo not drawn)	x	0.73
CC(C)Oc1ccccc1C(=O)NC(CO)C(=O)O (stereo not drawn)	0.85	0.71

Results, from the start:
SMILES	AID504770	Ba CapD inh
C/C(Cc1ccccc1)=N\NC(=O)c1cc(C(C)(C)C)[nH]n1	0.7	x
Cc1cc(N2C(=O)CSC2c2ccc3c(c2)OCO3)ccc1Br (stereo not drawn)	x	0.73
CC(C)Oc1ccccc1C(=O)NC(CO)C(=O)O (stereo not drawn)	0.85	0.71
Cn1nccc1C(=O)Nc1cc(Cl)ccc1Cl	-1.1	-0.3
CC12CC=CCC1C(=O)N(CCC(=O)O)C2=O (stereo not drawn)	-0.65	0.15
O=C(Cc1ccccc1)OCCN1CCCCC1	0	-0.27
Cc1ccc(Cn2ncc3c(Nc4ccc(C)cc4)ncnc32)cc1	0.25	1.8
CN(C)c1c(C(C#N)=C(C#N)C#N)c2ccccc2n1C	1.1	0.92
Cc1ccc(C(=O)N2c3ccccc3N3C(c4c(C)c(C)cc(C)c4C)=NON23)cc1	x	-1.3
CCOC(=O)c1ccc(NCN2C(=O)c3ccccc3C2=O)cc1	x	-0.66
COc1ccccc1OCC(=O)Nc1sc2c(c1C#N)CCCC2	-0.4	0.55
Cc1nc2ccc(NC(=O)c3ccc4ncsc4c3)cc2s1	-0.5	x
CC(=O)c1ccc(N2C(=O)/C(=C/c3ccc(-c4ccc(Br)cc4)o3)C=C2c2ccccc2)cc1	x	0.65
COc1cc2c(cc1OC)CN(C(=O)CSc1nnc3ccc4ccccc4n13)CC2	-0.4	6.4
CS/C(Nc1cccc(Cl)c1Cl)=C(/C#N)C(=O)c1cccs1	-0.15	-1.1
Cc1cc(C)cc(C(=O)NCC(=O)N2CCN(c3cccc(Cl)c3)CC2)c1	2	-0.005
Cc1cccc(C(=O)Nc2ccc(NC(=O)c3cccs3)cc2)c1	0.25	-0.31
Cc1cccc(NC(N)=O)c1	-0.85	x
COc1cccc2cc(-c3csc(NC(=O)CCC(=O)NC4CCCCCC4)n3)c(=O)oc12	x	0.72
CC1(C)CC(=O)C2=C(C1)OC1=C(C(=O)CC(C)(C)C1)C2c1ccccc1F	x	0.16
O=C(Oc1ccc(F)cc1Cl)c1cc2ccccc2s1	0.4	0.1
COc1ccc(CCNc2ncnc3scc(-c4ccccc4)c23)cc1OC	x	0.97
CCc1nc2c(cnn2-c2ccccc2)c(=O)n1CCc1ccccc1	-0.1	0.44
OCC1OC(Oc2ccc3cc(Br)ccc3c2)C(O)C(O)C1O (stereo not drawn)	-1	0.1

Part of the list above, set out differently:
Values run as follows: AID504770, Ba CapD inh
> CC1(C)CC(=O)C2=C(C1)OC1=C(C(=O)CC(C)(C)C1)C2c1ccccc1F
 : x, 0.16
> COc1cccc2cc(-c3csc(NC(=O)CCC(=O)NC4CCCCCC4)n3)c(=O)oc12
 : x, 0.72
> COc1cc2c(cc1OC)CN(C(=O)CSc1nnc3ccc4ccccc4n13)CC2
 : -0.4, 6.4

More results.
SMILES	AID504770	Ba CapD inh
Cc1ccc(/C=C/C(=O)N2CCN(c3ncc(C(F)(F)F)cc3Cl)CC2)o1	-0.15	x
CCn1c(Cc2ccccc2)nnc1SCC(=O)c1ccc2[nH]c(=O)[nH]c2c1	-0.35	x
CN(C)c1ccc(C2C3=C(CC(C)(C)CC3=O)Nc3ccccc3N2C(=O)Cc2ccccc2)cc1 (stereo not drawn)	x	-0.16
CCN(CC)C(=O)CSc1nc2c(sc(=S)n2CC)c(=O)n1-c1ccccc1	x	0.69
O=C1CCN(Cc2ccccc2)CCN1	x	-0.17
N#Cc1c(/N=C/c2cccn2-c2ccc(S(N)(=O)=O)cc2)sc2c1CCCC2	-0.2	0.13
COc1ccccc1N1CCN(S(=O)(=O)c2ccc3[nH]c4c(c3c2)CCCCC4)CC1	-0.6	-0.55
COc1cc(-c2csc(NCC3CCCO3)n2)cc(OC)c1OC (stereo not drawn)	-0.3	x
CC(C)(C)c1cc2nc(C(F)(F)F)cc(N3CCN(C(=O)OCCN4CCN(Cc5cc6c(cc5Cl)OCO6)CC4)CC3)n2n1	x	66
CCN1CCOC(CC(=O)Nc2ccccc2)C1=O (stereo not drawn)	-0.15	x
Oc1[nH]c2c(Cl)cc(Cl)cc2c1N=C1N=c2ccccc2=N1	-0.5	21
COc1ccc(CCN2CC(C(=O)NCc3ccc(F)cc3)CC2=O)cc1OC (stereo not drawn)	2.1	-0.51

Brought forward from above: 2 compounds; new compounds follow.
SMILES	AID504770	Ba CapD inh
Oc1[nH]c2c(Cl)cc(Cl)cc2c1N=C1N=c2ccccc2=N1	-0.5	21
COc1ccc(CCN2CC(C(=O)NCc3ccc(F)cc3)CC2=O)cc1OC (stereo not drawn)	2.1	-0.51
O=C(CS(=O)(=O)c1c[nH]c2ccccc12)N1CCc2ccccc21	-0.9	0.095
Fc1ccccc1-c1nc(-c2cccs2)c(-c2cccs2)[nH]1	2	42
O=C(NNC(=O)c1cccs1)c1ccoc1	x	-0.38
CCOc1cc(/C=C2\SC(=NC)N(C)C2=O)c(Br)cc1OC(C)=O	-0.4	x
O=C(CN1C(=O)COc2ccccc21)c1ccc(Cl)cc1	-1.6	x
C=C1C(C(=O)Nc2ccccc2)C1C(=O)Nc1ccccc1 (stereo not drawn)	0.35	-0.075
Cc1ccc(-c2nn(CCC(=O)O)cc2/C=C2\SC(N)=NC2=O)cc1	-0.7	0.09
CC(=O)Nc1ccc(NC(=O)CC(c2ccccc2)c2ccccc2)cc1	0.2	0.34
O=C(CN1C(=O)S/C(=C/c2ccc(Cl)cc2)C1=O)N1CCCCCC1	0.15	25
O=C(CSC1=NCCS1)NC1CCCC1	-1	x
Cc1ccc(N2C(=O)c3ccccc3C2(O)c2ncc[nH]2)cc1 (stereo not drawn)	-0.45	0.13
CCc1c(C)nc2ccc(C)cc2c1Cl	-0.25	-0.14
CO[C@@]1(NC(=O)C(C(=O)O)c2ccc(O)cc2)C(=O)N2C(C(=O)O)=C(CSc3nnnn3C)CO[C@@H]21 (stereo partly drawn)	0.45	0.015&-0.3
CCOC(=O)CCSc1n[nH]c(=S)s1	0.3	-0.53
O=c1c2ccccc2c(C=NCc2ccncc2)c(O)n1-c1ccccc1Cl	0.8	-0.81
CS(=O)(=O)N(CCC#N)Cc1ccc(/C=C2\C(=O)N(c3ccccc3)c3ccccc32)o1	1.8	x
CN1CCN(CCCNS(=O)(=O)c2cccs2)CC1	x	-0.34
O=S(=O)(c1ccc2ccccc2c1)N1CCN(c2ncnc3sccc23)CC1	-0.25	x
N#CC(C#N)(CC(=O)N1CCCc2ccccc21)CC(=O)N1CCCc2ccccc21	-3.2	x
O=C(CSc1ncccc1C(=O)O)NC12CC3CC(CC(C3)C1)C2	-0.4	x
CCn1c(=O)c(=O)[nH]c2cc(C(=O)N3CCN(c4ccccc4O)CC3)ccc21	-0.45	x
COc1ccc(C2OC(=O)c3ccccc3S2)cc1 (stereo not drawn)	-0.7	0.14
Cc1c(Cl)cccc1NC(=O)Cn1cnc2c1c(=O)n(C)c(=O)n2C	x	-0.23
O=C(NC1CCCCC1)/C(=N\O)c1ccccc1	0.65	0.15
N#Cc1ccsc1/N=C/c1ccccc1C(F)(F)F	0.5	-0.05
C=CCn1c(SCc2nc3ccccc3[nH]2)nnc1-c1ccccc1	0.45	2.2
Cc1ccc(S(=O)(=O)N(C)CC(=O)O)cc1	-0.2	x
N#CSCc1nc2ccccc2c2nc3ccccc3n12	0.1	0.81
O=C(CCCOc1ccccc1)NC1CCSC1=O (stereo not drawn)	-0.85	x
CC(C)C(O)(C(=O)OC[C@@H]1CCN2CCC[C@@H]12)C(C)O (stereo partly drawn)	-1.1	0.4
CCCSc1nsc(NC(=O)/C=C/c2cccs2)n1	0.3	x
CCN(CC)c1ncnc2sc(C(=O)O)c(C)c12	x	-0.46
COC(=O)c1cccc(N2C(=O)C3C4C=CC(C)(O4)C3C2=O)c1 (stereo not drawn)	-0.65	0.37
Cc1[nH]c2ccccc2c1-c1ncc(C(F)(F)F)cc1Cl	0.1	3.8
S=C(NC1CCCCCC1)NC1CC1	-0.35	0.32
Cc1ccc(-c2ocnc2C(=O)N2CCOCC2)cc1	-0.45	37
CCOC(=O)CC(Nc1nc(N2CCOCC2)nc(N2CCOCC2)n1)c1ccc(C)cc1 (stereo not drawn)	-1.1	0.29
COCCN(C(=S)Nc1ccc(C(C)C)cc1)C1CCN(C(C)C)CC1	0.05	-0.17
COc1c(S(=O)(=O)n2cnc(C)c2)ccc(Cl)c1Cl	-0.95	-0.2
COC(=O)c1ccccc1NC(=O)C1=C(C)C(=O)OC12CCN(C(C)=O)CC2	1.1	0.25
Cc1c(C(=O)Nc2ccc3c(c2)OCCO3)sc2ncnc(N3CCCCC3C)c12 (stereo not drawn)	x	-1.4
O=C(CSC(=S)N1CCCC1)NC1CCCCCC1	-1.1	x
COc1ccc(CN2C(=O)c3ccccc3C2C(=O)NCC2CCCO2)c(OC)c1 (stereo not drawn)	-1.5	-0.43
N#CC1=C(SCC(=O)c2ccc(F)cc2)NC2(CCCC2)C(C#N)C1=O (stereo not drawn)	0.6	-0.53
CC(NC(=O)NCc1ccccc1)c1nc(-c2ccncc2)n[nH]1 (stereo not drawn)	1.2	x
Cc1cccc(C=Nc2cccc(O)c2)c1	-0.3	-0.17
CN(C(=O)Cn1nc(Cc2cccnc2)c2ccccc2c1=O)C1CCCCC1	0.1	2.1
Oc1ccc(CNc2ccc(Cl)cn2)c2cccnc12	0.25	0.22
Cc1cc(C)cc(NC(=O)C(C)Oc2ccccc2)c1 (stereo not drawn)	-0.95	-0.25
CN1C(=O)CCS(=O)(=O)C1c1ccc(Cl)cc1 (stereo not drawn)	x	0.4&-0.22
Cc1ccc2oc(-c3ccc(Cl)c(Cl)c3)c(O)c(=O)c2c1	-0.35	1.5
Cn1cc(SCC(=O)Nc2ccc3c(c2)OCCO3)c2ccccc21	1.2	-0.41
COc1cc(-c2n[nH]c(=O)n2C2CCCCC2)cc(OC)c1OC	-0.45	0.28
CCn1c(SCc2ccccc2)nnc1-c1cccnc1	0.15	x
CSc1ccc(S(=O)(=O)NCC2CCCO2)cc1 (stereo not drawn)	-0.65	-1.2
CCCCCSc1nnc(-c2ccccc2NC(C)=O)c(=O)[nH]1	-1.1	-0.2
CCc1ccccc1OCC(=O)Nc1ccc(S(N)(=O)=O)cc1	-0.3	-0.46
O=C(NCc1ccccc1)C1=Cc2sc3c(c2CS1)CCCC3	2.3	-2.3
Cc1ccc(S(=O)(=O)N=S(C)(C)=O)cc1	x	0.73
CC1CCCN(S(=O)(=O)c2ccc3c(c2)CCN3C(=O)CCCC(=O)O)C1 (stereo not drawn)	-0.5	-0.2

7 compounds out of the list, ordered by number of heavy atoms, descending.
SMILES	AID504770	Ba CapD inh
CC1CCCN(S(=O)(=O)c2ccc3c(c2)CCN3C(=O)CCCC(=O)O)C1 (stereo not drawn)	-0.5	-0.2
COc1cc(-c2n[nH]c(=O)n2C2CCCCC2)cc(OC)c1OC	-0.45	0.28
CCCCCSc1nnc(-c2ccccc2NC(C)=O)c(=O)[nH]1	-1.1	-0.2
Cc1ccc2oc(-c3ccc(Cl)c(Cl)c3)c(O)c(=O)c2c1	-0.35	1.5
CSc1ccc(S(=O)(=O)NCC2CCCO2)cc1 (stereo not drawn)	-0.65	-1.2
CN1C(=O)CCS(=O)(=O)C1c1ccc(Cl)cc1 (stereo not drawn)	x	0.4&-0.22
Cc1ccc(S(=O)(=O)N=S(C)(C)=O)cc1	x	0.73

Further structures:
SMILES	AID504770	Ba CapD inh
COc1ccccc1NC(=O)c1c(C)nc2ccccc2c1C(=O)O	0.9	0.28
CSC(=NC#N)N1CCN(C(=NC#N)SC)CC1	0.05	0.72
Cc1ccc(-c2nnsc2-c2nc3ccccc3[nH]2)cc1	-0.6	-0.27
Cn1c(-c2sc3cc(C(F)(F)F)cnc3c2-c2ccccn2)n[nH]c1=S	x	-1.4
C=CCNC(=O)CSc1ncc2c(n1)-c1c(csc1SC)CC2	-0.15	30
Cn1c(=O)n(C)c2cc(Br)c(N)cc21	1.4	-1.3
CCOc1cc(/C=c2\sc3nc4c(C)c(C)ccc4n3c2=O)cc(Br)c1OCC(=O)O	x	-1.1
CCNC(=O)Oc1noc2ccccc12	0.5	-0.39
CCC1=NN(C(=O)c2ccccc2O)C(O)(c2ccccc2)C1 (stereo not drawn)	0.75	x
O=c1cc2c(nn1Cc1ccc(Cl)c(Cl)c1)-c1ccccc1CC2	x	2
CCCN1C(=O)/C(=C2\SC(=S)N(C)C2=O)c2cc(Br)ccc21	-0.25	-0.44
Cc1cc(C)cc(N2C(=O)CCN(Cc3ccccc3)C2=O)c1	1.8	-0.33
O=C(OCc1cc(Cl)cc2c1OCOC2)c1cccnc1Cl	-0.25	x
Cc1c(C)c(C)c(S(=O)(=O)N2CC(C)CC(C)C2)c(C)c1C (stereo not drawn)	0.25	-0.12
Cc1c(Cl)cnc(NC(=O)COC(=O)C2CC2)c1Cl	0.15	x
O=C(Nc1ccc(Cl)c(Cl)c1)c1ccc(F)c(S(=O)(=O)NCC2COc3ccccc3O2)c1 (stereo not drawn)	x	0.01
CCN1CCN(c2ncc(Br)cn2)CC1	0.5	2.3
CC(C)c1nnc(NC(=O)c2cc(Br)ccc2Cl)s1	0.15	0.37
O=c1[nH]nc(SCc2nc3ccccc3s2)n1C1CC1	-0.5	x
CC(CCc1ccccc1)NCc1c(C(=O)O)n(C)c2ccccc12 (stereo not drawn)	-0.3	-0.2
Cc1ccc(NC(=O)c2c(O)c3cccc4c3n(c2=O)CCC4)c(Br)c1	x	-0.6
O=S(=O)(c1ccc(F)c(F)c1)N1CCN(C(c2ccccc2)c2ccccc2)CC1	0.75	0.89
CC1(C)CC(=O)C2=C(C1)N(c1ccc(Br)cc1)C(N)=C(C#N)C2c1ccsc1 (stereo not drawn)	x	1.8
O=C(Cc1cc(F)cc(F)c1)NCc1ccco1	-0.55	-0.2
CCOc1cccc2c1OC(c1ccc(C(=O)OC)cc1)N1N=C(c3cccc(OC)c3)CC21 (stereo not drawn)	x	-0.34
CON(C)C(=O)c1ccc(C(C)(C)C)cc1	-0.85	0.24

From PubChem
